Compound activity from PubChem BioAssay.
CSC inhib: blocks cancer stem cells; cancer stem cell-like cells viability, luminescence; inhibition, % at 7.5 µM; actives 1.1% (n = 300,000); AID 2717;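 active = mean at 75% or more and at least half the replicates too; inconclusive = mean and replicates disagree; tested in HMLE shEcad cells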;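 also: 0% = median of negative and 100% = median of positive control wells; the first replicate is given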
Rce1 inh: yeast Ras-converting enzyme inhibition | actives 0.27% (n = 290,000) | Q03530 | AID 2563 | yeast membranes, quenched prenylated peptide cleavage fluorescence | calls only;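 active = fall in fluorescence gain of 50% or more versus controls, with final raw signal at or below 3038400; inconclusive = same 50% fall but final raw signal above 3038400; inactive = fall in fluorescence gain under 50%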;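 also: plate controls were neutral control wells for no effect and wells lacking membranes for full effect; tested at 10 µM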
Target sequence (Q03530 whole entry, looked up): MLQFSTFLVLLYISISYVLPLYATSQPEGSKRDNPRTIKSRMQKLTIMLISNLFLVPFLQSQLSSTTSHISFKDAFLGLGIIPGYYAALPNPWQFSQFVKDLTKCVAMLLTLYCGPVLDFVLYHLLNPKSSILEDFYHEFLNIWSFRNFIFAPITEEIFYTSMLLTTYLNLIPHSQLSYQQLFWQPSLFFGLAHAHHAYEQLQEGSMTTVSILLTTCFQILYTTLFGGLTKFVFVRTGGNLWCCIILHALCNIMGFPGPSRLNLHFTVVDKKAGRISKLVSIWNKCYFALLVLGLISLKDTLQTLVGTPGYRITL
PABP FP inh: PABP-poly(A) binding inhibition; P11940; PABP-poly(A) RNA binding, fluorescence polarization; inhibition, % at 35 µM; actives 1% (n = 290,000); AID 2014;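 active = 50% or more with normal probe brightness, or confirmed in later tests; inconclusive = above 50% with abnormal brightness, or retests that disagree; inactive = below 50% or failed in later tests; about a fifth of its hits are not listed in these tables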;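 also: calls also rest on retests at 20 µM and on dose response follow-up; controls were probe without protein and protein plus probe with vehicle; some compounds called inactive have numbers as strong as hits; many hits fall short of the cut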
MT1-MMP act inh: blocks activation of human MT1-MMP; AID 651647; GFP/RFP ratio change, % at 20 µM; HT1080 RFP-PRO-GFP cells, GFP/RFP ratio fluorescence, overnight; percent of plate control window, DMSO zero; actives 0.061% (n = 360,000);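 active = GFP/RFP ratio change of at least 30% with cell ATP level not reduced by more than half and red fluorescence within 50% of control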; also: strong numbers were not always called active
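Assay system – RFP-PRO-GFP reporter HT1080 cells · Compound dosing – single dose of 20 µM compound, 1% DMSO final · Incubation – overnight compound exposure at 37 °C · Measure – GFP/RFP fluorescence ratio · Benchmarks – DMSO wells and RFP-L50D-GFP cells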
eIF4H inh: inhibitors of RNA binding by human eIF4H. eIF4H fluorescence polarization binding assay. inhibition, % at 35 µM. actives 0.94% (n = 290,000);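 active = 50% or more with normal probe brightness, or confirmed in later tests; inconclusive = above 50% with abnormal brightness, or retests that disagree; inactive = below 50% or failed in later tests; about a fifth of its hits are not listed in these tables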;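 also: calls also rest on retests at 20 µM and on dose response follow-up; 0% = protein and probe with vehicle and 100% = probe without protein; strong numbers were not always called active; many hits fall short of the cut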
Yeast UUG start: modulators of start codon recognition fidelity in yeast. S. cerevisiae UUG-firefly luciferase reporter, luminescence/redox ratio. activity score, % at 18.7 µM. actives 0.13% (n = 350,000);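 active = replicate mean at a twofold rise or more, about +100% in these data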;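 also: firefly luciferase made from a UUG start codon reports start codon fidelity; reporter light over untreated wells divided by growth signal over untreated wells; some hits fall short of that in this replicate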
HIV Env fusion: HIV envelope-mediated fusion inhibition | actives 1.1% (n = 360,000) | HeLa-JRFL Env/CEM21 cell fusion, luciferase | inhibition, % at 12.3 µM;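 active = mean replicate inhibition score of at least 50 and every replicate individually at or above 50; inconclusive = only one of the two criteria met; inactive = mean below 50 and not all replicates reaching 50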;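 also: 0% = plate neutral controls and 100% = maraviroc near 300 nM; one replicate is shown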
eIF4H inh retest: recorded beside eIF4H inh, whose call it bears; inhibition, %; compound at 20 µM; confirmation average;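 mean of two retest wells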
PABP FP inh retest: second read-out of PABP FP inh, no call of its own (marks repeat the call); inhibition, %; compound at 20 µM; confirmation repeats;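 mean of two retest wells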
MT1-MMP act inh RFP: second read-out of MT1-MMP act inh, no call of its own (marks repeat the call); RFP signal change, %; measured here: RFP expression control read;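 0 = vehicle wells; hits needed this value within 50% of zero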
Active calls of the source: *; i = inactive; ? = inconclusive; . = not tested or not shown; & = joins results of further samples.

SMILES	CSC inhib	Rce1 inh	PABP FP inh	MT1-MMP act inh	MT1-MMP act inh RFP	eIF4H inh	Yeast UUG start	HIV Env fusion	others
CC(=O)c1cccc(S(=O)(=O)N(CCCO)Cc2cc3ccc(C)cc3[nH]c2=O)c1	0	i	-4	1	5	-6	.	-13
N#CN1CCC(NS(=O)(=O)c2ccc(C(F)(F)F)cc2)C1 (stereo unspecified)	23	.	.	-1	-6	.	-7	-3
Cc1nc(N/N=C/c2ccccc2)nc(N(C)c2ccccc2)c1[N+](=O)[O-]	-14	i	0	4	-1	-1	-7	-96
CCCNC(=O)N(C)C[C@H]1Oc2cc(Br)ccc2S(=O)(=O)N([C@@H](C)CO)C[C@@H]1C	.	.	.	4	8	.	3&5&7	-22
CC(c1cccs1)N(Cc1ccco1)C(=S)Nc1ccc(F)c(Cl)c1 (stereo unspecified)	23	i	7	1	0	-4	-15	-6
Cc1cc(NC(=O)COC(=O)COc2cccc3c2OC(C)(C)C3)no1	-18	i	1	3	6	11	-19	7
COC(=O)c1ccccc1NC(=O)C12CC3CC(C1)CC(n1cnc(Cl)n1)(C3)C2	3	i	-10	-4	-4	-4	-9	-47
COc1ccc(NC(=O)C2(C)CCN2C2Cc3ccccc3C2)cc1OC (stereo unspecified)	.	.	.	2	8	.	-3	-10
Cc1onc(-c2c(F)cccc2Cl)c1C(=O)NCc1ccccc1	-5	i	-16	-1	2	-8	-6	1
Cc1ccc(/C=N/NC(=O)c2ccccn2)o1	-6	i	-5	-4	0	-14	-30	.
O=C1CCC/C(=N/NC(=O)c2ccc(CN3c4cccc5cccc(c45)S3(=O)=O)cc2)C1	-12	i	30	-2	-4	35	-10	-25
Cc1nnn(C23CC4CC(CC(CC(=O)Nc5ccc(C)c(Cl)c5)(C4)C2)C3)n1	11	i	89	-13	-15	8	4	20	eIF4H inh retest=10;PABP FP inh retest=28
Cc1ccccc1N(C(=O)Cn1nnc2ccccc21)C(C(=O)NCc1ccco1)c1ccncc1 (stereo unspecified)	7	i	39	6	4	6	-20	.
Cc1cccc(/C=C2/S/C(=N/N=C3\CC4CCC3(C)C4(C)C)NC2=O)c1 (stereo unspecified)	-8	i	-3	5	-3	1	.	.
Clc1ccc(-c2nsc(N3CCOCC3)n2)c(Cl)c1	9	i	-7	1	-2	-8	-13	-87
CCC1(C(=O)c2ccccc2)C(c2ccc([N+](=O)[O-])cc2)C1(C(=O)OC)C(=O)OC (stereo unspecified)	-24	i	-2	3	4	-8	-18	-10
Cc1c2cnn(-c3ccccc3)c(=O)c2c(C)n1CCCC(=O)N1CCN(C2CCCCC2)CC1	-1	i	6	-3	-4	-3	46	14
CC1(C(=O)Nc2ccc(Cl)c(Cl)c2)CCN1Cc1ccccc1OC(F)F (stereo unspecified)	.	.	.	3	-15	.	-25	14
O=C(NCC1CCCO1)c1ccccc1-c1nc(-c2ccc(Cl)cc2)no1 (stereo unspecified)	-23	i	0	-4	-5	-2	7	3
CSc1nc(Sc2ccc(Cl)cc2)c2ccccc2n1	1	i	5	8	-4	-10	-2	.
COc1ccc(C(O)P(=O)(OC(C)C)c2ccc(N(C)C)cc2)c(OC)c1 (stereo unspecified)	-10	i	-3	-1	0	-5	-2	38
Cc1ccc(C(=O)O)cc1NC(=O)C1CCCN1S(=O)(=O)c1cccc2nsnc12 (stereo unspecified)	6	i	7	5	7	6	-9	19
CCOC(=O)c1c(C)oc2c1c(C=NCCO)c(O)c1ccccc12	.	i	10	-34	2	?	.	35
COCc1ccc(CN2CCC(CO)(CC3CCCCO3)CC2)o1 (stereo unspecified)	-3	i	1	1	4	-8	.	5
CC(C)(C)OC(=O)C[C@H]1C/C=C\C[C@H](CC(=O)NCCO)C(=O)NC[C@@H](c2ccccc2)OC1=O	-18	.	.	0	-1	.	20	17
Cc1ccc(C)c(S(=O)(=O)N/N=C/c2ccc(N3CCOCC3)cc2)c1	-12	i	4	-4	-3	-12	.	8
COc1ccc(C/C(N)=N/OC(=O)c2ccco2)cc1OC	0	i	-3	4	2	9	.	-32
Fc1ccc(NC(=S)Nc2ccc(Br)cc2)cc1	5	i	2	9	-2	1	-24	32
O=C(O)c1ccccc1SC1CC(=O)N(C2CCCCC2)C1=O (stereo unspecified)	-8	i	7	-1	6	4	-22	.
O=C(C1CCCN1C(=O)c1cccs1)N1CCN(Cc2ccc3c(c2)OCO3)CC1 (stereo unspecified)	-9	i	23	3	-1	-5	5	5

Sorted by SMILES length (ascending): 13 of the compounds above.
SMILES	CSC inhib	Rce1 inh	PABP FP inh	MT1-MMP act inh	MT1-MMP act inh RFP	eIF4H inh	Yeast UUG start	HIV Env fusion	others
Fc1ccc(NC(=S)Nc2ccc(Br)cc2)cc1	5	i	2	9	-2	1	-24	32
CSc1nc(Sc2ccc(Cl)cc2)c2ccccc2n1	1	i	5	8	-4	-10	-2	.
Clc1ccc(-c2nsc(N3CCOCC3)n2)c(Cl)c1	9	i	-7	1	-2	-8	-13	-87
COc1ccc(C/C(N)=N/OC(=O)c2ccco2)cc1OC	0	i	-3	4	2	9	.	-32
CCOC(=O)c1c(C)oc2c1c(C=NCCO)c(O)c1ccccc12	.	i	10	-34	2	?	.	35
O=C(NCC1CCCO1)c1ccccc1-c1nc(-c2ccc(Cl)cc2)no1 (stereo unspecified)	-23	i	0	-4	-5	-2	7	3
CC1(C(=O)Nc2ccc(Cl)c(Cl)c2)CCN1Cc1ccccc1OC(F)F (stereo unspecified)	.	.	.	3	-15	.	-25	14
Cc1ccc(C)c(S(=O)(=O)N/N=C/c2ccc(N3CCOCC3)cc2)c1	-12	i	4	-4	-3	-12	.	8
COc1ccc(C(O)P(=O)(OC(C)C)c2ccc(N(C)C)cc2)c(OC)c1 (stereo unspecified)	-10	i	-3	-1	0	-5	-2	38
Cc1ccc(C(=O)O)cc1NC(=O)C1CCCN1S(=O)(=O)c1cccc2nsnc12 (stereo unspecified)	6	i	7	5	7	6	-9	19
Cc1c2cnn(-c3ccccc3)c(=O)c2c(C)n1CCCC(=O)N1CCN(C2CCCCC2)CC1	-1	i	6	-3	-4	-3	46	14
CCC1(C(=O)c2ccccc2)C(c2ccc([N+](=O)[O-])cc2)C1(C(=O)OC)C(=O)OC (stereo unspecified)	-24	i	-2	3	4	-8	-18	-10
CC(C)(C)OC(=O)C[C@H]1C/C=C\C[C@H](CC(=O)NCCO)C(=O)NC[C@@H](c2ccccc2)OC1=O	-18	.	.	0	-1	.	20	17

More entries.
SMILES	CSC inhib	Rce1 inh	PABP FP inh	MT1-MMP act inh	MT1-MMP act inh RFP	eIF4H inh	Yeast UUG start	HIV Env fusion	others
O=C(c1ccccn1)C1CCCN(Cc2cn[nH]c2-c2cc3ccccc3o2)C1 (stereo unspecified)	.	i	-5	0	-3	4	.	-24
O=C(COC(=O)c1ccc(Br)o1)NCc1ccco1	-1	i	.	-6	0	.	13	.
c1ccc(OCCN2C3=NCCN3c3ccccc32)cc1	8	i	6	1	-3	-6	9	.
Cc1ccc2c(c1)NC(=O)C(CC(=O)N(C)Cc1ccccc1)O2 (stereo unspecified)	11	i	-1	-2	-2	4	-10	-39
Cn1nccc1C(=O)Nc1sc2c(c1C#N)CCCC2	-6	i	53	-1	1	4	-22	.	eIF4H inh retest=2;PABP FP inh retest=22
CC(=O)NC1(c2cccc(F)c2)CCN(CC(=O)NC(C)C)CC1	-5	i	-4	3	5	-14	1	38
c1ccc(CSc2ccc(-c3ccccn3)nn2)cc1	86*	i	-9	6	1	-2	-30	-93
Cc1cc(/C=N/n2cnnc2)c(C)n1-c1ccccc1	0	i	-2	0	8	1	.	.
CCOC(=O)c1cc(CC)sc1N	1	i	5	-2	0	3	-26	.
Cc1cc(C)c2c(c1)/C(=N/NC(=O)c1ccc(O)cc1)CCC2	-9	.	0	2	0	-2	.	-23
CC(C)CCc1noc(CN(C)CC2CCN(Cc3ccccc3)CC2)n1	21	i	-12	-2	-7	-6	-3	22
CC(C)(C)OC(=O)NOCC(=O)N(CC(=O)c1ccccc1)Cc1ccccc1	4	i	.	-1	2	.	2	11
C#Cc1ccc([C@H]2C=C(C(=O)O)O[C@@H](OCc3ccc(CO)cc3)C2)cc1	-5	i	27	-5	5	25	-13	0
O=C(NCCc1ccccc1)c1ccccc1NS(=O)(=O)N1CCCC1	-5	i	-13	-3	-3	-2	-8	40
CCc1ccc(NC(=O)CCS(=O)(=O)c2ccc3c(c2)CCN3C(C)=O)cc1	1	i	-3	2	-3	9	-6	0
CCOC(=O)C1CCCN(/C=C2\SC(=S)N(CC)C2=O)C1 (stereo unspecified)	.	i	-5	6	0	-2	.	-7
O=C(NCc1ccco1)c1ccc(-c2csnn2)cc1	-10	i	5	0	0	2	.	-13
CC(CN1CCCCC1)OC(=O)/C=C/c1ccccc1 (stereo unspecified)	-19	i	6	0	3	3	-1	7
Cc1ccc(C(=O)NCCNC(=O)c2ccc(C)nc2)cc1	-11	i	3	-2	2	9	-22	1
CCn1c(SCC(=O)Nc2c(C)n(C)n(-c3ccccc3)c2=O)nc2c1c(=O)n(C)c(=O)n2C	3	i	-8	6	9	4	.	-18
COC(=O)c1ccc2nc(-c3ccco3)c(Cc3ccccc3)n2c1	.	.	.	-6	2	.	7	-1
COC(=O)c1c(Sc2ccccc2)c2ccccc2n1C	8	i	.	-1	0	.	-12	3
O=C(Nc1ccc2ccccc2c1)c1ccccc1F	6	i	-14	0	-1	-5	-17	-148
Cc1ccc(S(=O)(=O)N2CCN(C(=O)c3ccc(OCc4c(C)noc4C)cc3)CC2)cc1	9	i	-6	4	-9	2	-8	-232
CC1(C)NS(=O)(=O)Oc2ccccc21	-16	i	-3	1	5	-9	-33	12
O=C(CN1CCN(Cc2ccc(Cl)cc2)CC1)N/N=C/C=C/c1ccccc1[N+](=O)[O-]	-6	i	-15	0	-4	-2	.	-13
O=C(Nc1ccccc1)NC1CCN(Cc2c(F)cccc2Cl)CC1	21	i	-3	5	-1	-11	-8	13
COc1ccc(C(=O)Cc2nnc(C)s2)cc1	-6	i	-4	-2	1	13	.	.
CC(C)Cc1cc(C(=O)N2CCCC(CCC(=O)N(C)CCc3ccccn3)C2)no1 (stereo unspecified)	-11	i	6	1	-8	-8	12	23
CC1CCN(CCCCOc2cccc(C(C)C)c2)CC1	23	i	-3	8	5	-6	-13	0
CN1OC[C@@H]2CN(C(=O)C(C)(C)C)[C@H](c3ccc(-c4cccnc4)cc3)C[C@@H]21	.	.	.	6	5	.	7	-10
CCOc1ccc(CC(=O)NNC(=O)/C=C/C(=O)O)cc1	1	i	8	0	3	-1	-15	3
c1ccc2c(c1)OCC(c1csc3ncnc(N4CCCC4)c13)O2 (stereo unspecified)	-14	i	-1	-14	-27	3	-2	.
COc1ccc(Cl)cc1NC(=O)CN(C)C(=O)c1cccc2cccnc12	-9	.	.	-1	2	.	-9	.
COc1cc(/C=C/C(=O)OCC(=O)NC2CCS(=O)(=O)C2)ccc1O (stereo unspecified)	-2	i	-14	0	0	-2	-11	9

An excerpt; rates above refer to the full screens.
